Bioassay records as filed in PubChem.
2A StopGo: lowers the luciferase signal of an FMDV 2A StopGo reporter | human cells with a luciferase reporter of 2A StopGo recoding; control for the full effect not named in the record | Potency, µM (top dose mostly 57.9 µM), for the others: at the highest dose signal change, negative = less light | 410,000 tested, 1.2% active | AID 1159524; active = well fitted falling curve with a large enough effect; inconclusive = small, poorly fitted or top-dose-only effect; inactive = no such curve, though single readings can be large or run the other way; tested in HEK293T cells; further: nearly all actives have a fitted effect of over 45% in size; luciferase light after 4 h
RE007 growth inh: less growth of the S. pombe RE007 Vpr strain; 360,000 tested, 0.21% active; S. pombe RE007 Vpr strain, BacTiter-Glo ATP luminescence, 24 h; control for the full effect not named in the record; Potency, µM (doses to about 92.2 µM), for the others: at the top dose activity change, negative = less growth; active = well fitted falling curve with a large enough effect; inconclusive = small, poorly fitted or top-dose-only effect; inactive = no such curve, though single readings can be large or run the other way;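 further: nearly all actives have a fitted effect of over 50% in size; the assay follows cell death caused by Vpr and the record does not say whether a fall means rescue or toxicity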
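Fission yeast RE007 carrying one integrated HIV-1 vpr copy, seeded at OD 0.01 in PMG+AL medium with 23 nL pinned compound. Grown 24 h at 30 degrees; viability read by BacTiter-Glo luminescence after 5 min.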
* marks the source's active call; other numbers are inactive results; ? = inconclusive; & = joins results of further samples; [ ] = dose if it differs, or a comment. On the % scale 0 is the no-effect control and ±100 the full control effect; potency means the concentration at half of the fitted maximal effect.

Start of the listing, in advance:
Order of results – 2A StopGo | RE007 growth inh
CN(/N=C/c1ccccc1)C(=S)c1ccccc1
→ 3% | 2%
CN(Cc1ccccc1)C(=O)c1cccc(NC(=O)Cc2ccc(NC(=O)C3CCN(C(=O)C4CCC4)CC3)cc2)c1
→ ? | 5%

This part in full, previewed entries included:
Order of results – 2A StopGo | RE007 growth inh
CN(/N=C/c1ccccc1)C(=S)c1ccccc1
→ 3% | 2%
CN(Cc1ccccc1)C(=O)c1cccc(NC(=O)Cc2ccc(NC(=O)C3CCN(C(=O)C4CCC4)CC3)cc2)c1
→ ? | 5%
CCOC(=O)C(=O)N(C)c1c(CC)nc2c(OCc3ccccc3)cccn12
→ -9% | -1%
O=C(NCc1ccco1)c1ccc(-c2ccc3nccn3c2)cc1
→ -6% | -15%
C=CCn1c(SCC(=O)NC2CCCC2)nc2ccccc21
→ -27% | -1%
O=C(NCc1ccccc1)C1Cc2c(-c3ccc4c(c3)OCO4)ccnc2O1 (stereo not drawn)
→ -1% | -16%
CCCCCc1c(-c2ccc(OC)cc2)ncn1CCc1ccccc1OC
→ 22µM* | -30%
Cc1ccccc1-c1csc(C(C)(O)c2ccc(F)c(F)c2)n1 (stereo not drawn)
→ -27% | ?
O=S1(=O)CCN(C2CCCCCC2)CC1
→ -18% | 1%
COc1ccccc1CNc1nc(Nc2ccccc2-n2cccn2)c2sccc2n1
→ ? | -17%
CC(C)(C)c1ccc(SC2=C[C@@]3(O)CC[C@@H](O)[C@@](Sc4ccc(C(C)(C)C)cc4)(C2=O)[C@H]3O)cc1
→ 0% | -17%
CCc1nc2c(OCc3ccc(C(=O)N(C)C)cc3)cccn2c1N(C)C(=O)c1ccc(C)cc1
→ 9% | -10%
COc1ccc(CN2C(=O)CN(S(C)(=O)=O)CC2(C)C(=O)NC(C)C)cc1 (stereo not drawn)
→ -3% | 0%
CN[C@H]1C[C@H]2c3cc(Oc4ccccc4C)ccc3CCN2C(=O)[C@H]1[C@H](C)O
→ -12% | 1%
CC1(C(=O)NS(=O)(=O)c2ccc(Br)cc2)CCN1C(=O)CC1CCCCC1 (stereo not drawn)
→ -6% | 8%[18.4 µM]
C[C@@H]1CN([C@H](C)CO)C(=O)c2cc(Br)cnc2O[C@H]1CN(C)C(=O)Nc1ccc2c(c1)OCO2
→ 0% | -9%
COC(=O)N(C)C[C@@H]1OCc2cn(nn2)CCCC(=O)N([C@H](C)CO)C[C@H]1C
→ -7% | 7%
CCN1C[C@@H]2[C@@H]3C(=O)N(C)C(=O)[C@@H]3[C@](C)(C1=O)N2C(=O)c1ccc(F)cc1
→ -8% | -7%
CC1(C(=O)Nc2ccc(F)cc2F)CCN1C(=O)Cc1ccc(Cl)cc1Cl (stereo not drawn)
→ -13% | 4%[18.4 µM]
COc1ccc(-c2csc(C(O)c3ccc(F)cc3)n2)cn1 (stereo not drawn)
→ 36%[activator] | -3%
CCC/C=C/c1ccc(CN2C(C(C)C)C(=O)N(Cc3cn(CC4CCCCC4)nn3)CCS2(=O)=O)cc1 (stereo not drawn)
→ -24% | 8%
O=C1c2sccc2-c2cccc3cccc1c23
→ -2% | ?
COCCN1C[C@@H](CO)O[C@@H](n2cnc3c(NC4CCCC4)ncnc32)C1
→ -22% | -4%
CC(C)OCc1ccc(C(=O)N2CCN(S(=O)(=O)c3ccc(Br)s3)CC2)cc1
→ ? | -3%
Cc1ccc(Cc2c(C3CCCCC3)nc3ccc(Cl)cn23)cc1
→ 10% | ?
CCC1CC(C(=O)O)CC(=O)N1 (stereo not drawn)
→ -4% | 5%
O=C(O)C1=C2C(=O)Nc3cccc(c32)C2(C1)C(=O)Nc1ccccc12 (stereo not drawn)
→ -11% | -2%
CC(Sc1ccc(S(=O)(=O)N2CCCCC2)cn1)C(N)=O (stereo not drawn)
→ 0% | -4%
O=C(NCc1ccccc1)c1cc(C2CCCCN2C(=O)CCCc2ccccc2)on1 (stereo not drawn)
→ -14% | 9%
CC(=O)c1c(O)c(C)c(O)c2c1OC1=Cc3c(c(C)nn3C)C(=O)C12C (stereo not drawn)
→ ? | 0%
Cc1cc2nc(-c3ccco3)c(Cc3ccccc3C(F)(F)F)n2c(C)c1Br
→ -22% | -22%
Cc1cn([C@H]2C[C@H](O)[C@@H](/C=C/C(=O)NCc3ccccc3)O2)c(=O)[nH]c1=O
→ 0% | -2%
COc1ccc(-c2oc3c(c2C(=O)OCCO)C(OCCCO)CCC3)cc1 (stereo not drawn)
→ -19% | -9%
CCCC(=O)NC(c1cccc([N+](=O)[O-])c1)c1ccc2cccnc2c1O (stereo not drawn)
→ 0% | -23%
CC1CN(C(=O)COC(=O)c2cncc(Br)c2)CC(C)O1 (stereo not drawn)
→ -14% | -9%
O=C(Nc1ccc2c(c1)OCCO2)C(CCc1ccccc1)N1CCN(c2ccc(F)cc2)CC1 (stereo not drawn)
→ 3% | 1%
CCCS(=O)(=O)NC(=O)C1(C)CCN(C(=O)c2ccccc2OC(C)=O)C1 (stereo not drawn)
→ 4% | 7%
C[C@@H]1CN([C@H](C)CO)C(=O)CCCn2nncc2CO[C@H]1CN(C)S(=O)(=O)c1cccs1
→ -5% | -2%
COc1ccc(NC(=O)N(C)C[C@@H]2Oc3cc(C#CCN(C)C)ccc3S(=O)(=O)N([C@H](C)CO)C[C@H]2C)cc1
→ 0% | -2%
O=C1c2c(O)cc(O)cc2O[C@H](c2ccc(O)cc2)[C@H]1O
→ -11% | 10%

A draw from above in order of formula weight, rising.
Order of results – 2A StopGo | RE007 growth inh
CCC1CC(C(=O)O)CC(=O)N1 (stereo not drawn)
→ -4% | 5%
CC(=O)c1c(O)c(C)c(O)c2c1OC1=Cc3c(c(C)nn3C)C(=O)C12C (stereo not drawn)
→ ? | 0%
COc1ccc(-c2oc3c(c2C(=O)OCCO)C(OCCCO)CCC3)cc1 (stereo not drawn)
→ -19% | -9%
CC1(C(=O)Nc2ccc(F)cc2F)CCN1C(=O)Cc1ccc(Cl)cc1Cl (stereo not drawn)
→ -13% | 4%[18.4 µM]
COc1ccccc1CNc1nc(Nc2ccccc2-n2cccn2)c2sccc2n1
→ ? | -17%
CCc1nc2c(OCc3ccc(C(=O)N(C)C)cc3)cccn2c1N(C)C(=O)c1ccc(C)cc1
→ 9% | -10%

Further entries.
Order of results – 2A StopGo | RE007 growth inh
CC(C)NC(=O)c1cccc2c(-c3ccc(F)c(F)c3)coc12
→ 21% | -16%
O=C(Nc1ccc(NC(=S)NC(=O)c2ccco2)cc1)c1ccc(Br)cc1
→ -22% | -17%
CCN(CC)C(=O)C1=C(C)N(CCCOC)C(=O)C(CC(=O)NC(c2ccccc2)c2ccccc2)C1 (stereo not drawn)
→ 0% | -6%
CCOc1cc(-c2ccccc2)nc2c1CN(S(=O)(=O)c1ccc(C)cc1)C(c1cccc(Cl)c1)C2 (stereo not drawn)
→ -18% | -6%
CS(=O)(=O)/C(C#N)=C/c1cccn1S(=O)(=O)c1ccc([N+](=O)[O-])cc1
→ -24% | -15%
CCCCC(=O)N(C)c1c(CC)nc2c(OCc3ccccc3C)cccn12
→ -23% | -5%
Cc1ccccc1OCC(=O)OCC(=O)NC1CCCC(C)C1C (stereo not drawn)
→ -24% | -1%
COc1cc2c(cc1O)[C@@H]1Cc3ccc(OC)c(O)c3CN1CC2
→ 0% | 0%
CCOC(=O)C1=CCN(S(=O)(=O)c2ccc(Br)cc2)C1c1ccc(C)cc1 (stereo not drawn)
→ -33% | -13%
COc1ccccc1Cc1c(-c2ccccc2)nc2c(C)cc(Br)cn12
→ -15% | ?
Clc1cccc(-c2ccc3nccn3c2)c1Cl
→ -22% | -26%
CCOC(=O)[C@]12CCCC=C1N(Cc1ccc3c(c1)OCO3)C(=O)[C@H](CC(=O)NCc1cccc3ccccc13)C2
→ -15% | -2%
CCCc1c(C(=O)N/N=C/c2ccc(OCc3ccccc3)cc2)nnn1-c1nonc1N
→ -18% | -7%
CCOC(=O)[C@]12CCC=C1N(Cc1ccccc1)C(=O)[C@H](CC(=O)NCc1cccc3ccccc13)C2
→ -17% | -3%
COc1ccc(-c2sc3cc(OC)ccc3c2-c2ccc(OCCN3CCCCC3)cc2)cc1
→ -5% | ?
CC1(C(=O)NS(=O)(=O)c2ccc(C#N)cc2)CCN1C(=O)C1(c2ccccc2)CC1 (stereo not drawn)
→ 6% | -10%[18.4 µM]
CC(C(=O)NC1CCCC1)n1c(-c2ccccn2)nc2ccccc21 (stereo not drawn)
→ -5% | -2%
OCCNc1ncnc2c1ncn2[C@H]1CN(Cc2ccc(-c3ccccc3)cc2)C[C@@H](CO)O1
→ ? | 2%
CN(C)CCNc1ncnc2c1ncn2[C@H]1CN(Cc2ccncc2)C[C@@H](CO)O1
→ -14% | -4%
Nc1[nH]c(C(=O)c2ccccc2)c(-c2ccc(F)cc2)c1C(=O)NCc1ccccc1
→ -11% | -10%
CC(=O)O[C@H]1C[C@@]2(C)[C@@H](C[C@@H](O)[C@H]3[C@@]4(C)CC[C@@H](O)[C@@H](C)[C@@H]4CC[C@@]32C)/C1=C(\CCC=C(C)C)C(=O)O
→ -24%&-6% | 12%
Cc1cc(Br)cc2c1N(C)C(=O)C2(c1ccc(O)cc1)c1ccc(O)cc1
→ -20% | 14%
C[C@@H]1CN([C@@H](C)CO)S(=O)(=O)c2ccc(Br)cc2O[C@@H]1CN(C)C(=O)c1ccncc1
→ -6% | 13%
Cc1ccccc1S(=O)(=O)N(C)C[C@@H]1OCc2cnnn2CCCC(=O)N([C@H](C)CO)C[C@@H]1C
→ -8% | -9%
CCc1nc2ccc(C(=O)N(CC)CCN(C)C)cn2c1N(C)Cc1cccs1
→ -13% | -20%
COc1ccc(NC(=O)CCNC(=O)C2CCN(S(=O)(=O)c3ccccc3)CC2)cc1OC
→ -16% | 5%
COc1cc(F)ccc1-c1cc(C(=O)NCc2cccc(Cl)c2)[nH]n1
→ 16% | -5%[18.4 µM]
COC(=O)C1=C(c2cccc(OC)c2OC)C[C@@H]2CC[C@H]1N2C(=O)NCCO
→ -3% | -6%
Cc1ccccc1S(=O)(=O)NC(=O)C1(C)CCN1C(=O)c1c(C)noc1C (stereo not drawn)
→ 3% | 10%
CC1CCCCN1CCCNC(=O)c1ccc2c(c1)NC(=O)CN2C (stereo not drawn)
→ -6% | 1%
COc1cccc(C(=O)Nc2cc(S(=O)(=O)N3CCOCC3)ccc2N2CCOCC2)c1
→ -20% | 3%
CCCCNC(=O)C1(C)CCCCN1C(=O)c1ccc(F)cc1Cl (stereo not drawn)
→ -22% | -15%
CC(=O)Nc1cccc(-c2cc(NC=O)c3ncc(-c4ccc(C(C)=O)cc4)n3c2)c1
→ -19% | 7%
CCCCCCn1cc(CN2CC(N3CCN(C4CCN(C)CC4)CC3)CS2(=O)=O)nn1 (stereo not drawn)
→ -9% | 7%
OC[C@@H]1CN(Cc2ccc(Cl)cc2)C[C@H](n2cnc3c(N4CCOCC4)ncnc32)O1
→ -18% | -4%
C/C(=N/NC(=O)c1nnn(-c2nonc2N)c1CSc1ccc(Cl)cc1)c1ccncc1
→ -3% | 8%
OC[C@@H]1CN(Cc2cccs2)C[C@H](n2cnc3c(Nc4ccccc4)ncnc32)O1
→ 4% | 1%
CCN(CCO)c1ccc(Nc2cc(-c3ccc(-c4ccccc4)cc3)ncn2)cc1
→ -22% | 1%
COC(=O)C1=C(c2cc3ccccc3o2)C[C@@H]2CC[C@H]1N2C(=O)NC1CCCCC1
→ 0% | -3%
Nc1sccc1C(=O)NCc1ccccc1
→ -6% | 6%
Cc1c(NS(=O)(=O)c2cc(C(=O)OCC(=O)c3ccccc3F)ccc2Cl)c(=O)n(-c2ccccc2)n1C
→ 25% | 8%
CCCC#Cc1cnc2c(c1)C(=O)N([C@H](C)CO)C[C@@H](C)[C@H](CN(C)S(=O)(=O)c1cccc(OC)c1)O2
→ -23% | 3%
CCCNC(=O)C1(C)CCCN(CC(=O)c2ccccc2OC)C1 (stereo not drawn)
→ -15% | 8%
O=[N+]([O-])c1ccc(N/N=C/C=C/c2ccco2)cc1
→ 39%[activator] | -23%
Cn1cc(C[C@H](NC(=O)OC(C)(C)C)C(=O)N[C@H](CO)Cc2ccccc2)c2ccccc21
→ -5% | -4%
Cc1cccc(C)c1-n1nnnc1C(c1ccnc2ccccc12)N(C)Cc1ccccc1 (stereo not drawn)
→ ? | -7%
COC(=O)N1CCCC(c2cc(C(=O)Nc3ccccc3Cl)no2)C1 (stereo not drawn)
→ 47%[activator] | -4%
O=C1CCC[C@@H]2C[C@@]3(C[C@@H]4CCN1[C@H]24)Nc1cc(Cl)c(Cl)cc1NC3=NCc1ccccc1
→ 26% | -13%
CCOC(=O)c1c(NC(=O)COC(=O)c2ccc(Cl)nc2)sc(C)c1C
→ -14% | -7%
CCCC(=O)N1CCC1(C)C(=O)Nc1ccc(OC)c(OC)c1 (stereo not drawn)
→ -12% | 0%
CCOC(=O)CC1(C)Sc2ccccc2N1S(=O)(=O)c1ccc(C)cc1 (stereo not drawn)
→ -5% | -2%
COc1ccc(OC)c(CN2C(=O)CCC2(C)c2nnnn2-c2c(C)cccc2C)c1 (stereo not drawn)
→ 1% | -1%
COc1ccc(CN2CCC2(C)C(=O)Nc2cccc(NS(C)(=O)=O)c2)c2ccccc12 (stereo not drawn)
→ ? | 8%[18.4 µM]
C[C@H]1CN([C@@H](C)CO)C(=O)c2cc(Br)cnc2O[C@@H]1CN(C)C(=O)C1CCC1
→ ? | -6%
CCc1ccc(N2CC(C(=O)Nc3ccccc3N3CCCC3)CC2=O)cc1 (stereo not drawn)
→ ? | -16%

An excerpt; rates above refer to the full screens.
